D2 PAM = potentiates the human D2 dopamine receptor allosterically | P14416 | DiscoveRx D2 beta-arrestin cells, luminescence, 90 min; 100% = 57 uM dopamine signal | potentiation, % (concentration not given with the values) | 360,000 tested, 0.23% active; active = potentiation of 50% or more; inconclusive = 30% to 50%; inactive = 30% or less;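 note: compound concentration not given in the record; tested on top of an EC20 dose of dopamine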
Target sequence (P14416 whole entry, looked up): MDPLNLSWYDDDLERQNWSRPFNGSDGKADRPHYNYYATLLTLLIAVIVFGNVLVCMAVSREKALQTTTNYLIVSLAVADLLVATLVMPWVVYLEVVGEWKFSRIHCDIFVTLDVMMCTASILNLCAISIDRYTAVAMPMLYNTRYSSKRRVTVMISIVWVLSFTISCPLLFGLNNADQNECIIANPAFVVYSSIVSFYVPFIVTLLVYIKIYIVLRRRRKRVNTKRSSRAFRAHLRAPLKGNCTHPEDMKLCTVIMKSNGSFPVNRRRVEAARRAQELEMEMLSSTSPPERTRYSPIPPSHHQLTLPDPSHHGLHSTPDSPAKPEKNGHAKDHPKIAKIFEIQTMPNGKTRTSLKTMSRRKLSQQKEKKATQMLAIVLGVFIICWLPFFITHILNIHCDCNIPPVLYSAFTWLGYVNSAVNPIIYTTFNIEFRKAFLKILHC
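PathHunter beta-arrestin assay in DiscoveRx D2 cells. Compounds were added with an EC20 of dopamine (50 nM final) for 90 min at 37 deg C. Luminescence was read 1 h after detection reagent, with 57 uM dopamine as the EC100 control.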
Six1-Eya2 blk = blocks human Six1 binding to Eya2. Q15475+O00167. activity change, % (concentration not given with the values). AlphaScreen GST-Six1/His-Eya2 binding, biochemical; stronger effect = lower value; control for the full effect not named in the record. 360,000 tested, 0.56% active. AID 651725; in the data active = activity change below about -65%; inconclusive = about -30% to -65%; inactive = above about -30%; note: % is set by controls: 0 for no effect and ±100 for the full control effect
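AlphaScreen with GST-Six1 and His-Eya2 (5X mix: 250 nM and 500 nM), glutathione donor and nickel acceptor beads; buffer 50 mM Tris pH 8.0, 300 mM NaCl, 1 mM TCEP; 1 h at 37 C in the dark.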
CtBP-E1A blk = inhibitors of CtBP/E1A interaction; activity change, % (concentration not given with the values); 340,000 tested, 0.49% active; AID 651724; AlphaScreen GST-E1A/His-CtBP binding, 1536-well; stronger effect = lower value; control for the full effect not named in the record; in the data active means activity change below about -65%; inconclusive means about -30% to -65%; inactive means above about -30%; note: % is set by controls: 0 for no effect and ±100 for the full control effect
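Homogeneous bead-based format: GST-tagged E1A captured on glutathione donor beads, His-tagged CtBP on nickel acceptor beads; compounds precede bead addition by 2 h at 37 °C.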
TRPML1 ag = human mucolipin-1 channel agonism; TRPML1-expressing cells, Ca2+ dye fluorescence, FDSS; host cell line not named in the record; reference of the full effect not given here; activation, % (no concentration beside the values); 410,000 tested, 0.12% active; in the data active = activation above about 50%; inconclusive = about 30% to 50%; inactive = below about 30%; note: 0% is about no effect; the text of the record puts the active cut at 80%
Target sequence (Q9GZU1 whole entry, looked up): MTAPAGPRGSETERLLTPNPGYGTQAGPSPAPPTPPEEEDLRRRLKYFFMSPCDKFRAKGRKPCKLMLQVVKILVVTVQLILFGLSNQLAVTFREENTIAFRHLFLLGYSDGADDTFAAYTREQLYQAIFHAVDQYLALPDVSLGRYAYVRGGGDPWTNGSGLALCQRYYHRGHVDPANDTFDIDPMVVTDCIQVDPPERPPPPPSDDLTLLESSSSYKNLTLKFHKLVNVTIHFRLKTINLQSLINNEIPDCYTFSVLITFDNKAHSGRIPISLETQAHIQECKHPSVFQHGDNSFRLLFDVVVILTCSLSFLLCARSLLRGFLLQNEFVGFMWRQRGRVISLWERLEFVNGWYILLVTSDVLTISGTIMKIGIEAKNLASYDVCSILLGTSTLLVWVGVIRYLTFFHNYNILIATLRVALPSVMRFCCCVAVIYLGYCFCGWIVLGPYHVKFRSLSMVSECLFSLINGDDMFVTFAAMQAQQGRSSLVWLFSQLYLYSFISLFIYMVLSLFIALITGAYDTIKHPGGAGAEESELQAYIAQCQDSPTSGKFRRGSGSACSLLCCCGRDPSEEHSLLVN
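In this qHTS format, compounds were pin-transferred onto Ca8-dye-loaded TRPML1-DL cells induced with Tet overnight, and intracellular Ca2+ fluorescence was recorded kinetically for 110 s after a 10 s baseline. A subsequent 4uM final 54-4 (EC80) addition followed by a second 110 s read served as the antagonist phase.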
TRPML1 blocker = inhibitors of human TRPML1 channel; AID 624415; Q9GZU1; activity change, negative = inhibition, % (concentration not given with the values); TRPML1-inducible cells, Ca2+ dye fluorescence, FDSS; stronger effect = lower value; inhibition of EC80 agonist-evoked calcium signal; 390,000 tested, 0.02% active; in the data active means activity change below about -50%; inconclusive means about -30% to -50%; inactive means above about -30%;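 note: stimulus is agonist 54-4 at its EC80 concentration; % is set by controls: 0 for no effect and ±100 for the full control effect; compound concentration not given in the record; the text of the record puts the active cut at -80%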
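Tet-induced TRPML1-DL cells loaded with Ca8 no-wash calcium dye were read kinetically on FDSS. Compound addition was followed by EC80 agonist 54-4 (4 uM final); inhibition was read over 110 s.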
TRPV1 PAM = enhances activation of the human vanilloid receptor TRPV1; Q8NER1; TRPV1-expressing cells, Fluo-8 calcium influx, capsaicin EC20 potentiation; host cell line not named in the record; control for the full effect not named in the record; potentiation, % at 8.33 µM; 320,000 tested, 0.02% active; active means potentiation above 80%; inconclusive means 30% to 80%; inactive means below 30%; note: 0% is about no effect
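Cells expressing TRPV1 were dye-loaded with Fluo-8 and read kinetically: 10 s baseline, 3 min after compound (agonist portion), then 2 min after EC20 capsaicin (allosteric enhancer portion). Calcium-bound dye fluorescence at 480/520 nm.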
An asterisk follows results filed as active; u = inconclusive; x = not tested or not shown; & = joins results of further samples.

SMILES	D2 PAM	Six1-Eya2 blk	CtBP-E1A blk	TRPML1 ag	TRPML1 blocker	TRPV1 PAM
N#CC(C(=O)Nc1ccc(Cl)c(Cl)c1)=C1Nc2ccccc2N1	12	-3	4	-0.1	21	2
Clc1ccc(CN2CCN(c3ncccn3)CC2)c(Cl)c1	59*	2	15	0.4	-8	-19
COc1ccc2cc(CN(Cc3cccnc3)Cc3nnnn3Cc3ccccc3)c(=O)[nH]c2c1	-3	-4	4	-0.3	0	5
O=C(O)CSCC(=O)N1CCCN(c2ccc(C(F)(F)F)cn2)CC1	1	8	5	-0.2	0	-11
COc1ccc(Br)cc1CNc1ccc2[nH]c(=O)[nH]c2c1	7	-20	-22	0.2	5	-13
CCOC(=O)c1cnc2ccc(C)cc2c1NCCO	-10	3	-1	0.0	0	12
CCOC(=O)N1CCC(NC(=O)C2CCCN(S(=O)(=O)c3cccnc3)C2)CC1 (stereo unspecified)	-8	2	1	0.3	0	-4
CCOc1ccc(N2CC(NS(=O)(=O)c3cccnc3)CC2=O)cc1 (stereo unspecified)	4	2	11	1.0	-3	6
CCN(c1ccccc1)S(=O)(=O)c1nnc(NC(=O)c2ccccc2OC)s1	9	3	5	-0.2&3.3	13&-6	-8
O=C(Cn1c(=O)oc2cc(S(=O)(=O)NCc3ccccc3)ccc21)N1CCCC1	-6	9	2	-0.7	-7	-3
COc1cc(NCC2COc3c(ccc(OC)c3OC)C2=O)c([N+](=O)[O-])cc1OC (stereo unspecified)	1	-23	-14	-1.2	x	x
C/C(=N\NC(=O)CCC(=O)NCc1ccccc1)c1ccc([N+](=O)[O-])cc1	24	0	1	-0.1	4	x
CC(C)NS(=O)(=O)c1ccc2c3c(cccc13)CC2	-5	12	x	3.1	11	-11
CC1(OC(=O)C2CCCC2)C(=O)C=C2C=C(c3ccsc3)OC=C2C1=O (stereo unspecified)	0	-10	-3	3.7	23	-19
COc1cc(C(=O)NCc2nnc(SCC(=O)Nc3cccc(C(F)(F)F)c3)o2)cc(OC)c1OC	-21	-1	-5	-1.0	9	12
COc1cccc(-c2ncc3ccccc3c2COC(=O)c2ccccc2C(=O)O)c1	9	-3	2	0.8	19	8
CN(CC(=O)Nc1ccc(F)cc1)C(=O)c1cc(-c2cccs2)nn1-c1ccccc1	-30	-4	14	0.9	-3	-7
O=C(CCc1ccccc1)NC(NC(=S)Nc1ccc(Br)cc1)C(Cl)(Cl)Cl (stereo unspecified)	1	-3	-15	1.1	21	-7
Nc1nc(C(=O)N2CCOCC2)nn1C(=O)c1ccc(Cl)cc1	0	0	7	0.5	-6	1
N#C/C(=C\c1cn[nH]c1-c1ccccc1)C(=O)NC1CCCCCC1	-8	-1	0	1.6	41	x

Next part, starting with the last seven of the part before.
SMILES	D2 PAM	Six1-Eya2 blk	CtBP-E1A blk	TRPML1 ag	TRPML1 blocker	TRPV1 PAM
CC1(OC(=O)C2CCCC2)C(=O)C=C2C=C(c3ccsc3)OC=C2C1=O (stereo unspecified)	0	-10	-3	3.7	23	-19
COc1cc(C(=O)NCc2nnc(SCC(=O)Nc3cccc(C(F)(F)F)c3)o2)cc(OC)c1OC	-21	-1	-5	-1.0	9	12
COc1cccc(-c2ncc3ccccc3c2COC(=O)c2ccccc2C(=O)O)c1	9	-3	2	0.8	19	8
CN(CC(=O)Nc1ccc(F)cc1)C(=O)c1cc(-c2cccs2)nn1-c1ccccc1	-30	-4	14	0.9	-3	-7
O=C(CCc1ccccc1)NC(NC(=S)Nc1ccc(Br)cc1)C(Cl)(Cl)Cl (stereo unspecified)	1	-3	-15	1.1	21	-7
Nc1nc(C(=O)N2CCOCC2)nn1C(=O)c1ccc(Cl)cc1	0	0	7	0.5	-6	1
N#C/C(=C\c1cn[nH]c1-c1ccccc1)C(=O)NC1CCCCCC1	-8	-1	0	1.6	41	x
CCc1ccc(NC2=NC(C(=O)c3ccccc3)CC(=O)N2)cc1 (stereo unspecified)	-8	-1	7	-0.4	27	9
NCc1ccccc1	-6	3	1	0.9	-6	-6
CCc1ccc(C(C)NC(=O)C2CCCC2)cc1 (stereo unspecified)	2	4	4	-0.3	-2	-10
CCOc1ccc(N2C(=O)CC(NC3CCCCNC3=O)C2=O)cc1 (stereo unspecified)	-11	-5	-2	0.1	-8	-32
CC(Oc1ccccc1F)c1nnc(SCC(=O)c2c(N)n(C3CC3)c(=O)[nH]c2=O)o1 (stereo unspecified)	-7	7	x	-0.6	-14	1
COc1cc(NC(=S)Nc2ccc(OC(F)F)cc2)cc(OC)c1	-13	-9	-9	0.2	37	0
COc1cc(N=c2ssnc2Cl)cc(OC)c1OC	2	4	-1	-0.2	-4	x
O=C(CN1C(=O)CSc2ncccc21)NCCN1CCOCC1	-7	12	-7	-0.2	-6	-6
Cc1c(C(=O)Nc2c(F)cccc2F)sc2ncn(CC(=O)N3CCCCC3)c(=O)c12	-14	0	-2	-0.6	4	6
CCOC(=O)CCNC(=O)N1CCCC(N(C)CCc2ccccc2)C1 (stereo unspecified)	0	4	9	-0.4	-15	1
CN(C)S(=O)(=O)c1ccc(C(=O)NCc2nnc(SCC(=O)N3CCCC3)o2)cc1	-19	6	10	-0.2	38	2
COc1ccc(CNC(C)C2COc3ccccc3O2)c(OC)c1 (stereo unspecified)	-9	-7	-4	-0.9	-4	2
Oc1ccc(Br)cc1CNc1cccc2cccnc12	14	-27	-23	2.4	-4	-1
O=C(COC(=O)Cn1[nH]c(=O)c2ccccc2c1=O)NNC(=O)c1ccc(Br)cc1	-10	-2	7	-0.1	12	2
Cc1cccn2c(=O)c3cc(C(=O)NCCc4ccccc4)c(=N)n(CC4CCCO4)c3nc12 (stereo unspecified)	-4	1	5	-0.8	-5	4
COc1ccccc1Nc1nc(N(C)c2ccccc2)nc(N)c1[N+](=O)[O-]	-11	1	x	2.2	-3	-20
C=CCNC(=O)c1c(CSc2ccc(F)cc2)noc1C(=O)NCCC	-18	2	3	0.9	7	u
O=C(O)CCCNS(=O)(=O)c1cccc2nsnc12	-10	-3	2	-0.1	-4	-3
CCn1cc(S(=O)(=O)Nc2ccc(Cl)cc2F)cn1	10	3	0	-0.4	-10	12
COc1ccc(CCNC(=O)CCc2nc3sc4c(c3c(=O)[nH]2)CCCC4)cc1	-10	-1	3	0.0	-13	11

Retrieved one by one from the list above, 3 records:
SMILES	D2 PAM	Six1-Eya2 blk	CtBP-E1A blk	TRPML1 ag	TRPML1 blocker	TRPV1 PAM
Nc1nc(C(=O)N2CCOCC2)nn1C(=O)c1ccc(Cl)cc1	0	0	7	0.5	-6	1
C/C(=N\NC(=O)CCC(=O)NCc1ccccc1)c1ccc([N+](=O)[O-])cc1	24	0	1	-0.1	4	x
N#C/C(=C\c1cn[nH]c1-c1ccccc1)C(=O)NC1CCCCCC1	-8	-1	0	1.6	41	x

Entries listed so far shown as hits in D2 PAM.
Molecule | D2 PAM | Six1-Eya2 blk | CtBP-E1A blk | TRPML1 blocker
Clc1ccc(CN2CCN(c3ncccn3)CC2)c(Cl)c1 | 59* | 2 | 15 | -8

Other results:
SMILES	D2 PAM	Six1-Eya2 blk	CtBP-E1A blk	TRPML1 ag	TRPML1 blocker	TRPV1 PAM
COc1cc(CNCc2ccncc2)cc(OC)c1OC	-1	4	x	-0.7	1	7
COc1ccc(OC)c(NC(=O)c2cccc(N3C(=O)C4C5C=CC(C6CC56)C4C3=O)c2)c1 (stereo unspecified)	-9	-6	x	1.6	18	3
COC(=O)C1CN(C(=O)COc2ccc(Cl)cc2C)c2ccccc2O1 (stereo unspecified)	-8	1	3	1.2	3	2
Cc1ccc(C)c2[nH]c(=O)c(CCNC(=O)c3cccs3)cc12	-4	-11	-2	-0.3	42	17
Cn1cc(CNCC2CCCO2)c(-c2ccc(Oc3ccccc3)cc2)n1 (stereo unspecified)	-7	0	7	0.4	-10	8
Cc1ccc(NC(=O)N2CCSc3ccccc32)cc1	-6	9	-16	1.2	33	-10
CCCn1c(Nc2cccc(OC)c2)nc2ccccc21	-5	-1	x	-0.8	11	14
CC(C)(C)c1cc(-c2ccco2)c(C#N)c(SCC#N)n1	-24	3	3	1.0	8	3
COc1ccc(-c2ccc3c(c2)C2CC3CCN2S(=O)(=O)c2ccccc2C)cc1 (stereo unspecified)	-1	-1	-26	1.5	34	x
COc1ccc(OC)c(S(=O)(=O)N2CCN(C34CC5CC(CC(C5)C3)C4)CC2)c1	-8	-12	1	-0.3	-1	x
COC(=O)CN1C(C)=Nc2ccc(Br)cc2C1c1ccccc1 (stereo unspecified)	-40	0	-5	0.9	1	9
CCc1cc2c(=O)c(-c3nc4ccccc4n3C)c(C)oc2c(CN(CC)CC)c1O	-30	-4	-4	-1.5	33	-9
O=C(COC(=O)c1ccc(S(=O)(=O)NCc2ccco2)cc1)NCc1ccccc1	-1	3	2	0.0	15	x
CCC(Cc1ccccc1)NC(=O)CN(C)S(=O)(=O)c1ccc2c(c1)c(=O)n(C)c(=O)n2C (stereo unspecified)	-7	u	-21	-0.8	-3	2
COC(=O)c1cc(C#N)c(Oc2cccc(C)c2C)nc1C	-12	10	10	3.4	7	-3
CC(=O)NC1=NN(C(C)=O)C(C)(c2ccco2)S1 (stereo unspecified)	5	5	u	-0.1	-8	6
CC1=CC2=NC(=O)/C(=C\c3cc(C)n(-c4ccc(F)cc4)c3C)C(=N)N2O1	-23	10	6	1.5	-18	-47
Cc1cccc(C(=O)Nc2ccc(N3CCN(c4ccc(C(F)(F)F)cn4)CC3)nc2)c1	-5	5	-1	0.4	3	5
CC(C)c1ccccc1OCC(=O)N(C)CC(=O)Nc1ccc(F)cc1	-46	5	7	0.3	-12	-18
COc1cccc(C(=O)NC(=O)Nc2cc(C)on2)c1	-7	5	-2	0.3	5	22
CC(C)Oc1ccc(CSC(=N)N)cc1	-18	2	-1	-0.1	2	-8
CCOC(=O)c1cn(Cc2ccccc2)nn1	1	2	-1	0.4	-12	5
CCOC(=O)c1ccc(NC(=O)CSc2nnc(CC)o2)cc1	-8	1	-9	-0.3	14	5
COc1ccc(S(=O)(=O)N2CCOCC2)cc1NC(=O)c1c(C)noc1C	0	3	4	-0.1	-7	x
COc1ccc(N2CCN(c3ccc(S(=O)(=O)N(C(C)C)C(C)C)cn3)CC2)cc1	2	-4	-1	0.1	-1	2
O=C(COC(=O)Cn1cnc2ccccc2c1=O)Nc1cc(Cl)ccc1[N+](=O)[O-]	u	-11	7	-0.8	-13	-18

High-throughput results (PubChem BioAssay)
